StopGo RLuc: Primary qHTS Assay for Foot and Mouth Disease Virus Antivirals against NCGC Sytravon and CBC Compound Libraries: Renilla Luciferase Signal; HEK cells with a luciferase reporter of 2A StopGo recoding; Potency, µM (highest dose often 57.5 µM), inactives show at the top dose signal change, negative = less light; actives 0.32% (n = 120,000); active means well fitted falling curve with a large enough effect; inconclusive means small, poorly fitted or top-dose-only effect; inactive means no such curve, though single readings can be large or run the other way; further: nearly all actives have a fitted effect of over 55% in size; overnight with compound
StopGo FLuc: Primary qHTS Assay for Foot and Mouth Disease Virus Antivirals against NCGC Sytravon and CBC Compound Libraries: Firefly Luciferase Signal | HEK cells with a luciferase reporter of 2A StopGo recoding | Potency, µM (series often up to 57.5 µM), for inactives: at the top dose signal change, negative = less light | actives 0.23% (n = 120,000); active = well fitted falling curve with a large enough effect; inconclusive = small, poorly fitted or top-dose-only effect; inactive = no such curve, though single readings can be large or run the other way; further: nearly all actives have a fitted effect of over 60% in size; overnight with compound
Numbers without * were called inactive; ? = inconclusive; [ ] = another dose, or the depositor's remark. On the % scale 0 is the no-effect control and ±100 the full control effect; potency means the concentration at half of the fitted maximal effect. These rows are one share of the data; the hit share may differ from the screen's.

Order of results – StopGo RLuc | StopGo FLuc
> CCNC(=O)COC(=O)c1ccc2c(=O)n3c(nc2c1)CCCCCC3
    -6% | -6%
> CCN(CC)S(=O)(=O)c1ccc(-c2nc(C#N)c(N3CCC(Cc4ccccc4)CC3)o2)cc1
    2% | 5%
> O=C(CN1CCC(c2nc3ccccc3s2)CC1)NC(=O)Nc1ccc2c(c1)OCCO2
    -2% | 109%[activator]
> CCN1CCN(C(c2cccs2)c2c(NC(=O)c3ccccc3)sc(C)c2C)CC1 (stereo not given)
    -9% | 5%
> CCc1nn(CC(=O)NCCCN(CC)CC)c(=O)c2cc3sc(C)cc3n12
    -19% | -30%
> N#Cc1cc2c(cc1-c1ccc3c(c1)OCCO3)OCCO2
    62%[activator] | 242%[activator]
> Cn1c(=O)n(C)c2cc(CNCc3ccc(F)cc3)ccc21
    -5% | -7%
> O=C(CSc1nccn1-c1ccc(Cl)cc1)Nc1ccc(Cl)c(Cl)c1
    5% | 4%
> COc1ccc(NC(=O)Cc2c(C)c3ccc(O)cc3oc2=O)cc1
    60%[activator] | 12%
> CC(C)(CNC(=O)C1CC1)CNC(=O)C1CC1
    -11%[1.06 µM] | 22%
> O=C(CSc1nc2ccccc2o1)c1cccc(C(F)(F)F)c1
    26% | 46%[activator]
> N#Cc1ccccc1COC(=O)c1ccc(COc2ccccc2)o1
    31% | 16%
> CCOC(=O)CSc1nc2ccc(NC(=O)c3ccccc3)cc2s1
    -20% | 38%[activator]
> O=C(O)CCCC[C@@H]1SC[C@@H](NC(=O)c2ccccc2)[C@@H]1O
    -9% | -16%
> CCOc1cc(C(=O)OCC(=O)Nc2ccc(F)cc2F)ccc1OCC(=O)N1CCCCC1
    5% | 0%
> COC(=O)c1cccc(CNC(=O)c2ccccc2C(=O)O)c1
    9% | 3%
> O=C1/C(=C/c2cccc(F)c2)CSc2c(F)cccc21
    ? | ?
> CC(C)CNC(=O)COC(=O)c1nn(Cc2ccccc2)c(=O)c2ccccc12
    36%[activator] | 0%
> CC(NC(=O)CC1(C(=O)O)CCCCC1)c1ccc2c(c1)CCCC2 (stereo not given)
    -3% | 0%
> c1ccc(CCc2nnc(CCc3ccccc3)s2)cc1
    6% | 0%
> Cc1oc(-c2nc(C#N)c(N(C)Cc3ccccc3)o2)cc1S(=O)(=O)N1CCOCC1
    18% | -5%
> COc1ccc(-c2cc(C(F)(F)F)n3nc(C(=O)O)c(Cl)c3n2)cc1OC
    -4% | 0%
> CN(C)c1ccc(CNC(=O)c2cnc3sc(N4CCCCCC4)nn3c2=O)cc1
    -13% | 22%
> FC(F)(F)c1cc(-c2ccccc2)nc(SCc2cccnc2)n1
    ? | ?
> O=[N+]([O-])c1c(Nc2ccccc2Cl)cc(Cl)c2nonc12
    ? | ?
> S=C(NCc1ccc(Cl)cc1)NCc1cccs1
    244%[activator] | 0%
> COc1cc(CN2CCN(Cc3ccccc3C)CC2)cc(OC)c1O
    1% | 4%
> Cn1nc(C(=O)N2CCN(c3ccc(F)cc3)CC2)c2ccccc2c1=O
    6% | -5%
> CCOCCc1nn2c(=O)cc(COC(=O)c3ccc4c(c3)OCO4)nc2s1
    5% | -2%
> Cc1ccc(/C=C/C(=O)c2c(C)nc3ccccc3c2-c2ccccc2)cc1
    ? | -16%
> COc1ccc(Cl)cc1NC(=O)N1CCN(c2ccc(=O)n(-c3ccc(C)c(C)c3)n2)CC1
    -10% | -4%
> CCC(CC)C(=O)Nc1nonc1-c1ccc(Br)cc1
    0% | 15%
> COC(=O)c1cc(COC(=O)Cc2coc3cc(C)c(C)cc23)oc1C
    4% | 2%
> COc1cccc(Oc2coc3cc(OC(=O)c4ccccc4Br)ccc3c2=O)c1
    10% | 66%[activator]
> Cc1c(C(=O)N(C)C)sc2c1c(=O)n(-c1ccc(Cl)c(Cl)c1)c(=O)n2CC(=O)N1CCCCC1C (stereo not given)
    2% | -21%
> O=C(NCCC(=O)N(Cc1ccco1)C1CC1)C1CCCC1
    22% | 4%
> CCCCCCNC(=O)c1nccnc1N
    9% | 171%[activator]
> COCCNC(=O)c1ccc2c(c1)N(Cc1c(F)cccc1Cl)C(=O)c1ccccc1S2
    38%[activator] | -6%
> COCCn1c(-n2nc(C)cc2C)nc2c1c(=O)n(Cc1ccccc1F)c(=O)n2C
    -2% | -8%
> Cc1cccc(C(=O)Nc2nnc(C3CC(=O)N(c4cc(C)cc(C)c4)C3)s2)c1 (stereo not given)
    0% | 6%
> Cc1ccc(CCNC(=O)CCc2nc(CS(=O)(=O)c3ccccc3)no2)cc1
    26% | 37%
> Cc1cc2c(cc1S(=O)(=O)Nc1cccc(Cl)c1C)n(C)c(=O)c(=O)n2C
    156%[activator] | -5%
> O=C(Nc1ccc(Cl)c(S(=O)(=O)Nc2ccccc2Cl)c1)c1n[nH]c2ccccc12
    15% | -24%
> Fc1cc(Br)ccc1Nc1c2c(nc3nc(-c4cccs4)nn13)CCCC2
    -11% | 15%
> CCCN1CCN(CCCNC(=O)c2ccc(CS(=O)c3ccc(OC)cc3)o2)CC1 (stereo not given)
    -14% | -17%
> Cc1ccc(-n2nc(C)c3c(C)c(CCC(=O)NCc4ccc(Cl)cc4)c(C)nc32)cc1
    -9% | 19%
> Cc1ccc(C2CC(=O)CC(c3ccc(C)cc3C)S2)c(C)c1 (stereo not given)
    11% | 5%
> CCc1cc(=O)oc2c(C)c(OCc3cccc(OC)c3)ccc12
    6% | 161%[activator]
> C#CCNC(=O)Nc1cccc(C)c1
    116%[activator] | 38%[activator]
> CC1CC(C#N)NC(=S)N1 (stereo not given)
    -7% | 2%
> CCC(C)NC(=O)CCNC(=O)N1CCn2c1nc1ccccc12 (stereo not given)
    -9% | 3%
> CC(C)N(C(=O)COC(=O)/C=C/c1cccc2cccnc12)c1ccccc1
    -2% | -12%
> O=C1Cc2cc(C(=O)CSc3nnc(-c4ccccc4Cl)o3)c(Cl)cc2N1
    -16% | -3%
> NC(=O)c1cc(-c2csc(NC3CCCC3)n2)ccc1O
    31%[activator] | 112%[activator]
> COc1ccc(Cn2nnc(C(=O)Nc3cc(OC)ccc3OC)c2N)cc1
    78%[activator] | 39%[activator]
> O=C1CCCC2=C1C(c1ccc(F)cc1)c1c(nc(SCc3ccccc3F)[nH]c1=O)N2 (stereo not given)
    5% | -15%
> Cc1ccc(NC(=O)c2c(C)oc3ccc(O)c(CN4CCCCCC4)c23)c(C)c1
    5% | -26%
> O=C(CSc1nc(=O)n(Cc2ccncc2)c2c1CCC2)Nc1cccc(F)c1
    4% | -3%
> CCOC(=O)Cn1c(=N)n(CCOc2ccc(OC)cc2)c2ccccc21
    -8% | -16%
> COc1ccc(Nc2cc(C)nc3c(C)ccc([N+](=O)[O-])c23)cc1
    -26% | -25%

The list continues.
Order of results – StopGo RLuc | StopGo FLuc
> Cc1cc(OCC(=O)N(Cc2sccc2C)CC2CCCO2)ccc1Cl (stereo not given)
    103%[activator] | 9%
> CN(Cc1cnn(C)c1)C(=O)C1CC(=O)N(c2cccc(Cl)c2)C1 (stereo not given)
    -3% | 2%
> CC(C[N+](C)(C)C)OC(=O)c1ccc2c(c1)OCO2 (stereo not given)
    -1% | 0%
> CCOc1ccc(CCNC(=O)c2cccc(Nc3nc4ccccc4nc3-n3nc(C)cc3C)c2)cc1OCC
    -8% | -15%
> CCOC(=O)C1=C(N)Oc2c(oc(CO)cc2=O)C1c1cccc(F)c1 (stereo not given)
    6% | 13%
> O=c1[nH]c2ccc(NCc3ccccc3F)cc2[nH]1
    -4% | 21%
> O=C(O)c1ccc(-c2ccccc2)cc1
    -8% | 18%
> CNCc1ccc(-c2ccc(Cl)cc2)o1
    -13% | 22%
> O=C(NCc1ccc2c(c1)OCO2)c1ccc2c(c1)N(Cc1ccccc1)C(=O)c1ccccc1S2=O (stereo not given)
    5% | -12%
> O=C(NCCn1cc(SCc2ccc(C(F)(F)F)cc2)c2ccccc21)c1ccccc1F
    4% | 16%
> Cc1ccc(CNC(=O)CCc2ncc(-c3ccc(F)cc3)o2)cc1
    7% | 52%[activator]
> O=C(O)c1ccc(C(=O)/C=C/c2cccs2)s1
    -11% | 0%
> COc1cc(Cl)c(C)cc1NC(=O)c1ccc2c(Cl)c3c(nc2c1)CCC3
    -17% | -16%
> CC(CO)NC(=O)CSc1nc(-c2ccccc2)c(-c2ccccc2)o1 (stereo not given)
    17% | -2%
> Cn1c(=O)c2c(ncn2Cc2ccccc2F)n(C)c1=O
    -3% | 4%
> COc1cccc(NC(=O)C(Oc2ccc(S(=O)(=O)N3CCOCC3)cc2)c2ccccc2)c1 (stereo not given)
    211%[activator] | 1%
> COC(=O)C(C)OC(=O)c1ccc(OC)c2ccccc12 (stereo not given)
    2% | 12%
> N#CCCN1CCN(c2cc(C(=O)O)c3cc(NC(=O)c4ccccc4)ccc3n2)CC1
    -1% | 7%
> Cc1ccc(C(=O)OCc2cc(=O)oc3c(C)c(C)ccc23)s1
    -8% | -2%
> COC(=O)c1c(SC)nc2ccccc2c1OCc1ccc(C)cc1
    1% | -3%
> CC(C)NC(=O)c1ccc(F)cc1I
    -8% | 0%
> Cc1cccc(NC(=O)CSc2nc3ccc(NC(=O)COc4ccccc4F)cc3s2)c1
    -7% | 0%
> CCc1ccc(NC(=O)CN(c2cc(C)cc(C)c2)S(=O)(=O)c2c(C)[nH]c(=O)[nH]c2=O)cc1
    21% | -6%
> Cc1cccc(N(C)c2ccc3cc(S(=O)(=O)N4CCCC4)ccc3n2)c1
    10% | 12%
> CN(C)CCC1CCNCC1
    7% | 7%
> Cc1cc(C)cc(OCC(O)Cn2c(C)cc(=O)n3ncnc23)c1 (stereo not given)
    -5% | 0%
> Cc1cccc(C(=O)NC(C)C2CCCO2)c1 (stereo not given)
    10% | 15%
> Cc1ccc(NC(=O)CN2Cc3ccccc3C2=O)c(C)c1
    25% | 12%
> CCC(C)CNC(=S)NC1CC1 (stereo not given)
    24% | 3%
> Cc1ccccc1-n1c(/C=C/c2ccccc2F)nc2ccccc2c1=O
    0% | ?

A second format for some results above:
smiles,StopGo RLuc,StopGo FLuc
O=C(CSc1nc(=O)n(Cc2ccncc2)c2c1CCC2)Nc1cccc(F)c1,4%,-3%
CCOC(=O)Cn1c(=N)n(CCOc2ccc(OC)cc2)c2ccccc21,-8%,-16%
COc1ccc(Nc2cc(C)nc3c(C)ccc([N+](=O)[O-])c23)cc1,-26%,-25%
Cc1cc(OCC(=O)N(Cc2sccc2C)CC2CCCO2)ccc1Cl (stereo not given),103%[activator],9%

An excerpt from further up, for reference:
Order of results – StopGo RLuc | StopGo FLuc
> Cc1cccc(NC(=O)CSc2nc3ccc(NC(=O)COc4ccccc4F)cc3s2)c1
    -7% | 0%
> CCc1ccc(NC(=O)CN(c2cc(C)cc(C)c2)S(=O)(=O)c2c(C)[nH]c(=O)[nH]c2=O)cc1
    21% | -6%
> Cc1cccc(N(C)c2ccc3cc(S(=O)(=O)N4CCCC4)ccc3n2)c1
    10% | 12%
> CN(C)CCC1CCNCC1
    7% | 7%
> Cc1cc(C)cc(OCC(O)Cn2c(C)cc(=O)n3ncnc23)c1 (stereo not given)
    -5% | 0%

New compounds follow:
Order of results – StopGo RLuc | StopGo FLuc
> COc1ccccc1N1CCN(c2ccc(=O)n(CC(=O)NCc3ccc(OC(C)C)cc3)n2)CC1
    -6% | -14%
> O=C(c1cc(-c2ccc(Cl)cc2)on1)N(Cc1ccco1)Cc1cccs1
    56%[activator] | 56%[activator]
> CCc1ccc2oc(C(=O)Nc3ccc(C)cc3C)cc(=O)c2c1
    -3% | 3%
> Cc1cccc(C2CCCCC2)c1O
    5% | 5%
> CSc1ccc(/C=C/c2nc3ccccc3n2S(=O)(=O)c2ccc(Br)cc2)cc1
    -7% | 51%[activator]
> O=C(CCc1ncc(-c2ccccc2)o1)Nc1ccccc1
    -11% | 0%
> Cc1cccn2c(=O)cc(CSc3nnc(NC(=O)COc4ccc(F)cc4)s3)nc12
    5% | -12%
> Cc1ccc(-c2cc(C(=O)O)c3cc(C)cc(C)c3n2)c(C)c1
    -4%[1.06 µM] | 22%
> CCN1CCN(c2ncc3c(n2)CCN(Cc2ccc(C)s2)C3)CC1
    4% | -1%
> Cc1cc(OC(C)C(=O)NCCCO)c2c(C)c(C)c(=O)oc2c1 (stereo not given)
    16% | 25%
> CC(=O)c1cccc(NC(=O)CSc2nncn2CCc2cccs2)c1
    -11% | -8%
> COc1cc(S(=O)(=O)NC(c2ccc(F)cc2)c2cccs2)ccc1NC(C)=O (stereo not given)
    122%[activator] | 19%
> COc1ccc2c(c1)CCC/C2=N\O
    -5% | 10%
> Cc1cc(=O)oc2c(C)c(OC(C)C(=O)NCCCn3ccnc3)ccc12 (stereo not given)
    -5% | -11%
> CC/C(=C(/CC)c1ccc(O)cc1)c1ccc(O)cc1
    -5% | -12%[11.5 µM]
> CCn1cc(S(=O)(=O)c2cccc(Cl)c2)c(=O)c2cc(F)c(N3CCC(C)CC3)cc21
    -6% | -8%
> CC(Oc1cccc(C(C)C)c1)C(N)=O (stereo not given)
    -1% | 3%
> O=C(Nc1cccc(CO)c1)c1cn(Cc2ccccc2Cl)nc1-c1ccccc1
    0% | 7%
> CCOc1ccc2c(-c3cc4cccc(OC)c4oc3=O)cc(=O)oc2c1
    -10% | -4%
> CC(CNC(=O)c1cc2cc(F)ccc2[nH]1)c1ccccc1 (stereo not given)
    0% | 81%[activator]
> COc1ccc(Oc2c(C)oc3cc(OCC(=O)NC4CC4)ccc3c2=O)cc1
    -11% | -8%
> CC(C)[C@@H](C(=O)Nc1ccc(N(C)C)cc1)n1nnc2ccccc2c1=O
    14% | 0%
> COc1cccc(C2C3=C(CC(C)(C)CC3=O)Nc3cc(OC)c(OC)cc32)c1 (stereo not given)
    0% | -14%

From PubChem
